# High-throughput results deposited in PubChem by ICCB-Longwood Screening Facility, Harvard Medical School.
# MgrA DNA FP – S. aureus MgrA-DNA binding modulation | fluorescence polarization | inhibition, %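 (about 10 µg/mL by stock and volumes)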 | actives 0.13% (n = 84,000) | AID 602314;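 active = above 50% in either of two replicates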;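 also: 0% = protein plus DNA without compound and 100% = DNA alone without protein; higher means less MgrA bound to DNA so lower polarization; one replicate is shown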
# Sa helicase inh – blocks Staphylococcus aureus DNA helicase | purified S. aureus helicase, fluorescence unwinding assay; about half of the hits fall short of the stated cut | inhibition, %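 (tested at about 80 µM)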 | actives 0.05% (n = 120,000) | AID 485395;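 active = both duplicates at 50% or more, or one of them with a favoured structure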;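 also: 0% = mean of negative control wells and 100% = mean of positive control wells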
# Numbers without * were called inactive; · = no result given.
Structure | MgrA DNA FP | Sa helicase inh
O=C(Nc1nn[nH]n1)c1ccc(S(=O)(=O)N2CCCCC2)cc1 | · | -9
CC(NC(=O)Nc1ccccc1)C(=O)N1CCc2ccccc21 (stereo not drawn) | · | -7
Cc1ccc(C(=O)CCc2nc3ccccc3s2)cc1C | 0.0 | 7
CCN1CCCC1CNC(=O)c1cc2c(s1)-c1ccccc1SC2 (stereo not drawn) | -3.0 | 9
O=C(Cc1ccccc1)NC1CCS(=O)(=O)C1 (stereo not drawn) | 1.0 | -2
Cc1ccc(-c2nc(C#N)c(NCCCN3CCCC3=O)o2)cc1 | · | -21
COc1cc(OC)c(NC(=O)Cn2nnc(C(=O)O)c2C(=O)O)cc1Cl | · | 12
COc1ccc(N(C(=O)c2ccccc2)S(=O)(=O)c2ccc(Cl)cc2)cc1 | 1.1 | 17
Cn1c(=O)c2c(nc(NCc3ccc4c(c3)OCO4)n2Cc2ccc(F)cc2)n(C)c1=O | 1.9 | ·
COC(=O)CN1C=C(C(=O)OC)C(c2cccc(Cl)c2)C(C(=O)OC)=C1 | · | 21
O=C(CC1SC(=NC2CC3C=CC2C3)NC1=O)Nc1cc(Cl)ccc1Cl (stereo not drawn) | -1.2 | ·
c1ccn2c(CNC3CC4CC3C3CCCC43)nnc2c1 (stereo not drawn) | · | 3
C=C1C[C@]23C[C@@]1(O)CC[C@H]2[C@@]12C=C[C@H](O)[C@@](C)(C(=O)O1)[C@H]2[C@@H]3C(=O)O | 3.0 | ·
Cc1cc(NS(=O)(=O)N2CCOCC2)no1 | -3.9 | 4
COCC(C)n1c(SCc2nc3ccccc3c(=O)[nH]2)nc2ccccc2c1=O (stereo not drawn) | · | -3
Cc1cccc(N2CCN(C(=O)Nc3ccccc3F)CC2=O)c1C | -2.0 | -4
O=c1[nH]ncc(NCc2ccccc2)c1Cl | -0.6 | -13
c1ccc(-c2csc(-c3ccc4c(c3)OCCO4)n2)cc1 | -0.8 | ·
Clc1ccc(Cl)c(OCCOc2cc(Cl)ccc2Cl)c1 | -2.4 | ·
COC(=O)c1ccc(CSc2nc3ccccc3s2)o1 | -1.2 | 8
CCn1c(C(C)NC(=O)c2ccccc2)nc2ccccc21 (stereo not drawn) | · | -21
O=C1CCCN1CCCNc1nc2c(S(=O)(=O)c3ccc(Br)cc3)nnn2c2ccccc12 | · | 3
O=C(CSc1nc2c(c(=O)n1CCc1ccccc1)SCC2)Nc1nccs1 | 2.5 | 10
COc1cc2c(cc1OC)CN(C(=O)/C=C/c1ccc(OCc3c(C)noc3C)c(OC)c1)CC2 | · | 11
Cc1nc(C)c(-c2ccn(S(=O)(=O)c3ccc(Cl)cc3)n2)o1 | -2.5 | ·
CC(/C=C1\SC(N(C)c2ccc(O)cc2)=NC1=O)=C\c1ccccc1 | 0.8 | -14
c1nc(NCc2ccc3c(c2)OCO3)c2nc3n(c2n1)CCCCC3 | 0.1 | 6
COc1ccc2[nH]c(=O)c(CN(C)S(=O)(=O)c3ccc(C)cc3)cc2c1 | · | -5
O=C(CCCC(=O)Nc1cccc2ccccc12)Nc1cccc2ccccc12 | 0.7 | -1
CC1(C)CC2CC(C)(CN2CC(O)COCc2ccccc2F)C1 (stereo not drawn) | -2.8 | 12
O=c1[nH]c(CN2CCN(CC3CCCO3)CC2)nc2cc(-c3ccc(Cl)cc3)sc12 (stereo not drawn) | · | -5
O=C1/C(=C/Nc2cccnc2)S(=O)(=O)N(Cc2ccccc2)c2ccsc21 | · | -18
Nn1c(SCC(=O)N2CCCc3ccccc32)nnc1-c1ccccc1 | 0.2 | 6
C=CCn1c(=S)sc2c(Sc3nnc(-c4ccco4)o3)ncnc21 | -0.8 | ·
CN(CCNC(=O)c1cc2c(=O)n(C)c3ccccc3c2s1)Cc1ccccc1 | 7.9 | 13
CCCSc1nc2cc(C)c(C)cc2[nH]1 | -0.5 | -19
NC(=O)NC(=O)COc1ncnc2ccccc12 | · | -9
CSC(=CC(=O)c1ccc(Cl)cc1)SC | · | 23
COc1ccc(-c2n[nH]c(C(F)(F)F)c2-c2cnn(-c3ccccc3)c2)c(O)c1C | · | 7
O=C(O)c1ccc(CSc2nnc(COc3ccc(Cl)cc3Cl)o2)cc1 | 3.3 | -12
Cc1noc(C)c1CN1CCN(CC(=O)Nc2ccc(Cl)c(C(F)(F)F)c2)CC1 | · | 18
O=C(Nc1ccccc1)c1ccc(F)cc1 | 0.1 | 1
CC1CN(C(=O)NCc2ccccc2)c2ccccc2S1 (stereo not drawn) | · | 28
O=C(O)CSc1nc2cc(C(F)(F)F)ccc2n1Cc1ccccc1 | 0.7 | -10
O=C(CSCc1ccc(Cl)c(Cl)c1)Nc1ccc(F)cc1F | 0.5 | ·
CCNc1nc2ccc(Cl)cc2nc1NCC | -1.1 | ·
COC(=O)c1cc2oc3ccccc3c2n1CC(=O)N(C)c1ccccc1 | -3.0 | 9
CCOC(=O)N1C/C(=C/c2ccsc2)C(=O)/C(=C\c2ccsc2)C1 | · | -1
Cc1nnsc1C(=O)Nc1ccc2c(c1)C(=O)OC2 | -1.0 | ·
N#CC(N)c1ccc(F)cc1 (stereo not drawn) | · | -1
CC1=C(C#N)C(=O)NC(C)(C)C1 | 0.6 | -4
O=C(O)c1cnn(-c2ccc([N+](=O)[O-])cc2)c1C(F)(F)F | -3.5 | ·
Cc1cc(C)n(C(=O)C2CC=CCC2C(=O)O)n1 (stereo not drawn) | · | -1
COc1cccc(C(N)CC(=O)O)c1 (stereo not drawn) | 4.0 | ·
COC(CNC(=O)c1ccc(/C=C2/Sc3ccccc3N(Cc3cccc(C)c3)C2=O)cc1)OC | 1.1 | 12
O=[N+]([O-])c1cc(Cl)c(N2CCOCC2)cc1N1CCOCC1 | 0.2 | ·
Cc1ccc(C(=O)/C=c2\[nH]c(=O)/c(=C/c3cccnc3)s2)cc1 | 1.4 | -8
CC(=O)Nc1ccc(NC(=O)CC2C(=O)Nc3ccccc3N2C(C)=O)cc1 (stereo not drawn) | -4.6 | 2
COc1ccc(C(F)(F)F)cc1N | · | 1
CSc1ccc(CCNC(=O)C2CCCN(c3nnc(-n4cccc4)s3)C2)cc1 (stereo not drawn) | · | 15

# Further entries
Structure | MgrA DNA FP | Sa helicase inh
O=C(/C=C\Nc1cccc(N/C=C\C(=O)c2ccccc2)c1)c1ccccc1 | -2.8 | 15
CCCCn1nc(C)c(C(=O)N2CCN(Cc3ccc(OC)c(F)c3)CC2)c1Cl | · | 17
O=C(Nc1ccc(Cl)cc1Cl)c1cccnc1 | -2.3 | ·
Cc1ccc(O)c(C(=O)c2cnn(C(=O)Cc3csc(C)n3)c2)c1 | · | -14
Cc1noc(-c2ccccc2)c1NC(=O)N1CCOCC1 | -1.1 | ·
CN1CCC=C(Cc2n[nH]c(=O)c3ccccc23)C1 | -2.1 | -3
COCCOC(=O)C1=C(C)NC2=C(C(=O)CC(c3ccc(Cl)cc3)C2)C1c1ccc([N+](=O)[O-])cc1 (stereo not drawn) | 1.8 | ·
COc1cc(/C=C2\SC(=Nc3ccccc3)N(c3ccccc3)C2=O)cc(OC)c1O | -0.7 | -53
Cc1ccc(OCc2ccc(Cl)c(Cl)c2)c([N+](=O)[O-])n1 | -0.1 | ·
Nc1ccc(Br)cn1 | -3.8 | ·
Cc1ccc2c(COC(=O)c3ccc(S(=O)(=O)NCc4ccco4)cc3)cc(=O)oc2c1 | · | -5
C/C(N)=C(/C#N)C(=O)CSc1nnc(COc2ccccc2Cl)o1 | · | 0
COc1ccc(-c2nnc(C3CCN(S(=O)(=O)c4ccc5nc(-c6ccccc6)[nH]c5c4)CC3)o2)cc1 | · | 0
CCN(CC)CC(=O)Nc1ccc(C)cc1Br | 5.8 | -1
O=C1CCC(C(=O)OCN2C(=O)c3ccccc3C2=O)=NN1 | · | -5
CN(C)c1nc(C(C)(C)C)cc2c1C(=O)NC2=O | -0.3 | ·
Cc1ccc(C2C(C#N)=C(N)N(c3cccnc3)C3=C2C(=O)CCC3)s1 (stereo not drawn) | 3.5 | -11
COc1ccc(C2C=C(c3ccccc3)NC(=O)C2C#N)cc1 (stereo not drawn) | 2.4 | -16
Cn1c(=O)cc(N2CCCCC2)[nH]c1=O | · | 13
CCN(CC)C(=O)C1c2ccccc2C(=O)N2CCc3ccccc3C12 (stereo not drawn) | · | -1
CC1(C(=O)NCC(=O)c2cccs2)Cc2ccccc2C(=O)O1 (stereo not drawn) | -0.4 | 3
O=C(O)CC(CC(=O)N1CCOCC1)c1ccccc1 (stereo not drawn) | -3.0 | ·
O=C1OC(CC(=O)N2CCN(c3ccc(F)cc3)CC2)c2ccccc21 (stereo not drawn) | · | 18
CCOC(=O)c1c(C)n(-c2ccccc2)c2c1cc(OC(=O)c1cccc(OC)c1)c1ccccc12 | -2.4 | ·
Cc1ccc(/C(C#N)=C/c2c(F)cccc2Cl)cc1 | -1.4 | ·
CC(CCC(=O)NC1CCCCC1)C(=O)O (stereo not drawn) | -1.4 | 14
CC(=O)Nc1cc(C(=O)NCCN2C(C)CCCC2C)ccc1Sc1ccc(C)cc1 (stereo not drawn) | 1.9 | -7
CCC(CC)(C(=O)O)C(=O)Nc1ccc(SC(F)F)cc1 | · | 5
O=C1CCC(C(=O)OCc2nc3ccccc3s2)N1 (stereo not drawn) | · | -11
O=C(COC(=O)CSc1ccc(Cl)cc1)Nc1ccc2[nH]c(=O)[nH]c2c1 | · | 9
COc1ccc(CCn2cnn3c(=O)c4ccccc4nc3c2=O)cc1OC | -0.5 | ·
CCN(CC)c1cc(Cl)nc(N)n1 | -2.0 | ·
O=C(Nc1ccc(-c2nnc(-c3ccco3)o2)cc1)C(c1ccccc1)c1ccccc1 | · | 8
Cc1ccc2[nH]c3c(c2c1)CCC1C3=NNC1c1ccco1 (stereo not drawn) | -5.2 | -76
Cc1cc(C)c(C)c(OCC(O)CNC(C)C)c1 (stereo not drawn) | · | 22
O=C(Nc1ccc(Cl)cc1)N1N=C2c3ccccc3CCC2C1c1cccs1 (stereo not drawn) | -0.1 | ·
COCCN1C(=O)c2ccccc2C(C(=O)NCCN(C)C)C1c1ccc(F)cc1 (stereo not drawn) | 1.5 | 6
Cc1c(Cc2ccccc2)c(=O)oc2cc(OC3CCCCC3=O)ccc12 (stereo not drawn) | 0.5 | 4
CCC(=O)Nc1cccc(NC(=O)c2cc(OC)cc(OC)c2)c1 | 4.8 | 13
CNC(=O)c1ccc(NC(=O)C2=CSCCO2)cc1 | · | 10
O=C(CC1CCCC1)NCCc1cn2ccccc2n1 | · | 12
O=C(C[C@H]1NC(=O)[C@@H]2CCCN2C1=O)OCc1ccccc1 | 1.8 | 19
Cc1ccnc(NS(=O)(=O)c2ccccc2)c1 | · | 6
O=C(NCC(F)(F)F)Nc1ccccc1 | 0.0 | 20
Fc1cccc2c1NC(c1ccccc1)C1CC=CC21 (stereo not drawn) | · | 7
COc1nc2nonc2nc1OC | -0.8 | 3
O=c1oc2c3c(ccc2c2ccccc12)OCN(Cc1ccccc1)C3 | · | -9
O=C(NCc1ccccc1)c1cc(-c2ccccc2)c(N2CCOCC2)s1 | -1.2 | 3
O=C(Nc1sc2c(c1CN1CCOCC1)CCCC2)c1ccccc1 | 0.1 | -19
Cc1[nH][nH]c(=O)c1CCCOc1ccccc1 | 1.9 | -26
Cc1cccc(Cl)c1/C=N/NC(N)=S | 5.7 | ·
Cc1noc(C)c1C(=O)Oc1ccc(Cl)cc1 | -2.3 | ·
COc1cccc(N(C(=O)/C=C/c2ccco2)c2nc3ccccc3s2)c1 | · | -1
CCSc1nnc(NC(=O)CCc2nc3ccccc3s2)s1 | · | -1
CN(C)Cc1cccc(C(=O)O)c1 | -3.8 | 3
Cc1ccccc1-c1nc(CN2CCC(C(=O)NCc3ccco3)CC2)c(C)o1 | -0.1 | 21
O=C1c2ccccc2NC(c2cccc([N+](=O)[O-])c2)N1c1ccc(Br)cc1 (stereo not drawn) | 0.2 | ·
CN(C)C(=O)COc1ccc2c3c(c(=O)oc2c1)CCC3 | -2.1 | -12
O=C1OC2(CCCCC2)OC(=O)C1=Cc1ccc2c(c1)OCO2 | · | -9
N#Cc1cnn(C(=O)c2ccc(NS(=O)(=O)c3cccs3)cc2)c1N | · | 0

# The listing continues.
Structure | MgrA DNA FP | Sa helicase inh
CCC(=O)Nc1ccc(-c2cn3cccnc3n2)cc1 | · | 5
O=C(Cc1cccs1)Nc1nccs1 | -0.1 | -3
CC(C)C(=O)NC(C)C(c1cccs1)N1CCOCC1 (stereo not drawn) | · | 11
CCOC(=O)c1ccc(S(=O)(=O)Nc2nn3cnnc3s2)cc1 | · | 0
COCCN1C(=O)c2ccccc2C(C(=O)NC2CCCC2)C1c1c[nH]c2ccccc12 (stereo not drawn) | 1.8 | 0
Cc1cc(NS(=O)(=O)c2ccc(NC(=O)c3ccc(F)cc3)cc2)no1 | -1.0 | ·
COc1cc(NC(=O)COc2cc(C)c(Cl)c(C)c2)ccc1NC(=O)c1cc2ccccc2o1 | -1.5 | 2

# Not all compounds are listed (hit frequency here may not be typical).
